Assay outcomes from PubChem.
quorum sensing: Vibrio cholerae quorum sensing activators, luminescence (AID 686977). V. cholerae quorum sensing reporter, luminescence, 6 h; higher luminescence means a stronger effect; most inactives read 0. luminescence at 50 µM unless noted; hits with a dose series show EC50 in µM. 9,400 tested, under 10 active;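 active = light above mean plus 3 SD and confirmed in a dose series; inconclusive = above that limit without a clear retest; inactive = below it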;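 also: raw light counts without normalisation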
Numbers without * were called inactive; ? = inconclusive; [ ] = dose if it differs, or a comment.

SMILES	quorum sensing
O=C(NCc1ccccn1)Nc1ccc2c(c1)OCO2	0
CCc1nnc(SCC(=O)NC2CCCCC2)nc1CC	0
CCOc1cc(C2C(C(=O)OCC(C)C)=C(C)N=C3SCCC(=O)N32)ccc1OC(C)=O (configuration not stated)	0
CCn1c(NC(=O)c2ccc(C)cc2)c2ccccc2nc1=O	40
CC1=C(C(=O)OCC(C)C)C(c2ccccc2Cl)NC(=O)N1C (configuration not stated)	0
Nc1c(C(=O)Nc2ccc3c(c2)OCCO3)nnn1CCc1ccccc1	?
COc1ccc(C(=O)c2ccc(Br)cc2)cc1	0
N#CC1=C(SCC(=O)Nc2ccccc2)NC(=O)CC1c1ccc(O)cc1 (configuration not stated)	40
COc1ccc(C(=O)CSc2nnc(CNC(=O)c3ccc(OC)cc3)n2C)cc1	0
CC(=O)NC1(NC(C)=O)CCN(C)C(c2ccccc2)C1C (configuration not stated)	0
Cc1ccccc1-n1c(C)cc(/C=N/Nc2ccc([N+](=O)[O-])cn2)c1C	0
COc1ccccc1C(=O)Oc1ccc(C(C)C)cc1	320
CC(=O)c1c(C)[nH]c(C(=O)OCC(=O)NCCc2ccc(F)cc2)c1C	40
CN1/C(=C\C(=O)c2oc3ccccc3c2N)C(C)(C)c2ccccc21	0
COc1cccc(C(=O)CSc2nnc(-c3cccs3)o2)c1	0
CCCCn1c(CNC(=O)Cc2ccccc2)nc2ccccc21	?
CCOc1ccc(-c2nc(C#N)c(N3CCOCC3)o2)cc1	0
CCN(CC)CCNC(=O)c1ccccn1	0
CCNC(=S)N(Cc1ccc2c(c1)OCO2)C1CC(=O)N(c2ccc(F)cc2)C1=O (configuration not stated)	0
CC1CCCCN1C(=O)/C(=C\c1ccccc1)c1ccccc1 (configuration not stated)	0
Nc1c(C(=O)NCc2ccccc2)nnn1Cc1cccc(Cl)c1	0
CN1CCN(c2ccc(N)cc2)CC1	40
O=C(CS(=O)(=O)c1cn(Cc2cccc(F)c2)c2ccccc12)N1CCOCC1	0
CCN(C(=O)CN1CCN(c2ccccc2O)CC1)c1c(N)n(Cc2ccccc2)c(=O)[nH]c1=O	40
COc1ccc(CCNC(=O)c2cnn3ccccc23)c(OC)c1OC	0
O=C(Nc1ccc(Cl)cc1)N(CCCN1CCOCC1)Cc1cccs1	0
COc1ccc(NC(=O)CSc2nc3ncccc3[nH]2)cc1OC	0
CSc1oc(-c2ccco2)nc1S(=O)(=O)c1ccc(F)cc1	0
COC(=O)c1nc(NC(=O)c2ccccc2Cl)n[nH]1	40
c1ccc(-c2ncc(CSc3nncn3-c3ccccc3)s2)cc1	40
CCOc1ccccc1CNC(=O)c1cc2occc2n1C	0
COc1ccc(-c2nnc3sc(CCN4C(=O)c5ccccc5C4=O)nn23)cc1	0
COc1ccc(-c2cnc(N)nc2-c2ccc(OC)cc2O)cc1	40
Nc1nc2c(ncn2COC(CO)CO)c(=O)[nH]1	40[10 µg/mL]
CC(=O)NS(=O)(=O)c1ccc(N)cc1	0[10 µg/mL]
c1csc(CCNc2ncnc3sc4c(c23)CCC4)c1	0
CCN(CC)C(=O)CN1CCC(n2c(C)nc3cc(C(F)(F)F)ccc32)CC1	0
COc1cc(C2C(C(=O)OC(C)C)=C(C)Nc3ncnn32)cc(OC)c1OC (configuration not stated)	0
Cn1cc(/C=N/n2cnc3scc(-c4ccccc4)c3c2=O)c2ccccc21	0
CCOC(=O)C1=C(C)NC(C)=C(C(=O)OCC)C1c1cn(-c2ccccc2)nc1-c1ccco1	0

Some of the entries so far, with bars between the fields.
SMILES | quorum sensing
Nc1c(C(=O)NCc2ccccc2)nnn1Cc1cccc(Cl)c1 | 0
CN1CCN(c2ccc(N)cc2)CC1 | 40
O=C(CS(=O)(=O)c1cn(Cc2cccc(F)c2)c2ccccc12)N1CCOCC1 | 0
CCN(C(=O)CN1CCN(c2ccccc2O)CC1)c1c(N)n(Cc2ccccc2)c(=O)[nH]c1=O | 40
COc1ccc(CCNC(=O)c2cnn3ccccc23)c(OC)c1OC | 0
O=C(Nc1ccc(Cl)cc1)N(CCCN1CCOCC1)Cc1cccs1 | 0
COc1ccc(NC(=O)CSc2nc3ncccc3[nH]2)cc1OC | 0
CSc1oc(-c2ccco2)nc1S(=O)(=O)c1ccc(F)cc1 | 0
COC(=O)c1nc(NC(=O)c2ccccc2Cl)n[nH]1 | 40
c1ccc(-c2ncc(CSc3nncn3-c3ccccc3)s2)cc1 | 40
CCOc1ccccc1CNC(=O)c1cc2occc2n1C | 0
COc1ccc(-c2nnc3sc(CCN4C(=O)c5ccccc5C4=O)nn23)cc1 | 0
COc1ccc(-c2cnc(N)nc2-c2ccc(OC)cc2O)cc1 | 40
Nc1nc2c(ncn2COC(CO)CO)c(=O)[nH]1 | 40[10 µg/mL]
CC(=O)NS(=O)(=O)c1ccc(N)cc1 | 0[10 µg/mL]
c1csc(CCNc2ncnc3sc4c(c23)CCC4)c1 | 0
CCN(CC)C(=O)CN1CCC(n2c(C)nc3cc(C(F)(F)F)ccc32)CC1 | 0
COc1cc(C2C(C(=O)OC(C)C)=C(C)Nc3ncnn32)cc(OC)c1OC (configuration not stated) | 0
Cn1cc(/C=N/n2cnc3scc(-c4ccccc4)c3c2=O)c2ccccc21 | 0
CCOC(=O)C1=C(C)NC(C)=C(C(=O)OCC)C1c1cn(-c2ccccc2)nc1-c1ccco1 | 0

More results follow:
SMILES	quorum sensing
CCOc1ccc(N2C(=O)/C(=C/c3cccs3)N(CC(=O)OC)C2=S)cc1	0
CCn1c(=O)c(=O)[nH]c2cc(C(=O)NC3CCCc4ccccc43)ccc21 (configuration not stated)	0
CCCCC(=O)Nc1cccc(NC(=O)c2ccccc2Br)c1	0
O=C(NC1CCCc2ccccc21)c1cncc(Br)c1 (configuration not stated)	0
CCC(C)Sc1nnc(Cc2cc(=O)[nH]c(=O)[nH]2)n1-c1ccc(OC)cc1 (configuration not stated)	0
O=C(O)CS(=O)(=O)CC(=O)O	0
CS(=O)(=O)N1CCN(c2nc(-c3ccccc3)cs2)CC1	0
CCn1c(=O)n(CC(=O)N2CCC3(CC2)OCCO3)c(=O)c2ccccc21	40
CN(C)C(=O)COc1ccc2ccc(=O)oc2c1	0
COC(=O)c1cccc(N2C(=O)c3ccccc3S2(=O)=O)c1	40
CCOC(=O)N1CCN(C(=O)c2cc3sccc3n2C)CC1	0
Cc1ccc2c(C(=O)CN3CCN(C4CCCCC4)CC3)c(C)[nH]c2c1	0
O=C(CSc1nnc(-c2cc3ccccc3cc2O)n1Cc1ccco1)c1ccc(F)cc1	280
c1cncc(-c2nnc(-c3cccnc3)nn2)c1	0
CC1CCCCN1CCNC(=O)c1cnn2ccccc12 (configuration not stated)	40
CN(C)CCCSC(=N)N	0[10 µg/mL]
O=[N+]([O-])c1ccc2n[nH]nc2c1	0
CCCC(=O)Nc1cc(=O)n(C)c(=O)n1C	?
CN1CCN(C(=O)C2CC(c3ccc(F)cc3)=NO2)CC1 (configuration not stated)	0
CCOc1ccc(C)cc1S(=O)(=O)Nc1ccc(Cl)cn1	80
CC(C)CCNC(=O)C(NS(=O)(=O)c1ccc2c(c1)c(=O)n(C)c(=O)n2C)c1ccccc1 (configuration not stated)	0
CN(C)/C=N/c1sc2c(c1C#N)CCC2	0
COC(=O)C(C)Sc1nnc(Cc2cc(=O)[nH]c(=O)[nH]2)n1-c1cccc(OC)c1 (configuration not stated)	0
CC(C)(C)C(=O)Nc1nc2c(s1)COc1ccccc1-2	40
COc1ccc(N2CCN(C(=O)CCCSc3nc4ccccc4[nH]3)CC2)cc1	40
NS(=O)(=O)c1cc(C(=O)O)cc(N2CCCC2)c1Oc1ccccc1	0[10 µg/mL]
O=C1C2CCCN2C(c2cccc(F)c2)N1c1cccc(Cl)c1 (configuration not stated)	0
COc1cc(NS(=O)(=O)c2ccc(N)cc2)nc(OC)n1	0[10 µg/mL]
COC(=O)NCC(c1cccnc1)N1CCN(c2ccccc2)CC1 (configuration not stated)	0
CCOC(=O)c1ccc(NC(=O)CSc2nc3c(c(=O)n2C)SC(C)C3)cc1 (configuration not stated)	0
COc1ccc(NC(=O)C2CCN(S(=O)(=O)c3cccc4cccnc34)CC2)cc1OC	80
Cc1ccccc1NC(=O)NCCN1C(=O)C2C3C=CC(C3)C2C1=O (configuration not stated)	0
CC1CC(NC(=O)CCn2c(=O)oc3ccccc32)CC(C)(C)C1 (configuration not stated)	0
Cc1cc(Cl)ccc1OCC(=O)NCCOc1nc(N2CCCCC2)nc(N2CCOCC2)n1	0
O=C(CCS(=O)(=O)c1cccc2nonc12)N1CCCc2ccccc21	0
CN(Cc1ccccc1)C(=O)CCNS(=O)(=O)c1ccc2c(c1)oc(=O)n2C	160
Cc1cc(-c2ccco2)n(CC(=O)NCc2ccccc2)n1	0
CC(=O)N1CCC(Nc2ccc(C)cc2)CC1	0
O=C(C1CCCN(S(=O)(=O)c2cnc[nH]2)C1)N1CC(=O)N(CCc2ccccc2)C(=O)C1 (configuration not stated)	0
O=C(CC1Oc2ccccc2NC1=O)NCCCN1CCN(Cc2ccccc2)CC1 (configuration not stated)	0
Nc1nc(CSc2ncccn2)nc(Nc2ccccc2)n1	40
O=C(Nc1ccc2c(c1)OCCO2)c1ccc(NC(=O)C2CCCO2)cc1 (configuration not stated)	0
Cc1cccc2cc(CN(Cc3cccs3)C3(c4nnnn4C4CCCC4)CCCC3)c(=O)[nH]c12	0
O=P(O)(CCc1ccccc1)CN1CCCCC1	40
O=C(c1cc2c(s1)-c1ccccc1OC2)N1CCCC1	0
COc1ccc(OC)c(C2Nc3nc4ccccc4n3C(C)=C2C(=O)Nc2ccc(C)cc2C)c1 (configuration not stated)	0
O=C(c1ccc(CS(=O)(=O)c2c(Cl)cccc2Cl)o1)N1CCN(c2ccccn2)CC1	0
O=C(NCc1ccccn1)c1cnc2sccn2c1=O	0
Cc1c(N)c(=O)n(-c2ccccc2)n1C	0[10 µg/mL]
C[C@H](NC(=O)OC(C)(C)C)c1nnc(SCC(=O)Nc2ccc(Br)cc2)o1	0

Next structures follow:
SMILES	quorum sensing
CC(C)N(Cc1nc(-c2ccccc2)no1)C(=O)Cc1ccccc1	?
C[C@]12C=CC(=O)C=C1CC[C@H]1[C@@H]3C[C@@H](O)[C@](O)(C(=O)CO)[C@@]3(C)C[C@H](O)[C@@]12F	?
COC(=O)C(Cc1ccccc1)NC(=O)CSc1nc(N)cc(=O)[nH]1 (configuration not stated)	0
S=c1[nH]nc(-c2ccc3ccccc3n2)o1	0
O=C(Nc1ccccn1)C1CCN(S(=O)(=O)c2cccs2)CC1	40
O=C(C1CCC(CNS(=O)(=O)c2cccc3cccnc23)CC1)N1CCCC1 (configuration not stated)	0
CC(=O)c1ccc(NC(=O)C2CCCN2S(=O)(=O)c2cccc3cccnc23)cc1 (configuration not stated)	0
C=CCc1ccccc1OCCn1ccnc1	0
COC(=O)c1ccccc1NC(=O)C1CC(=O)N(c2ccccc2)C1 (configuration not stated)	0
Cc1cc(C(=O)NC2CCCc3ccccc32)c(C)o1 (configuration not stated)	0
Cc1cc(NC(=O)COC(=O)c2ccc(F)c(S(=O)(=O)N3CCOCC3)c2)no1	40
COc1cc(C)ccc1OCCOCCOc1c(C)cc(C)cc1Br	0
O=C(Oc1ccc(Br)cc1C(=S)N1CCCCC1)c1cc([N+](=O)[O-])cc([N+](=O)[O-])c1	0
CC(C(O)c1ccc(O)cc1)N1CCC(Cc2ccccc2)CC1 (configuration not stated)	0[10 µg/mL]
O=C(Cc1ccc(Cl)cc1)Nc1nc2ccccc2[nH]1	?
Cc1cc([N+](=O)[O-])ccc1NC(=S)NC(=O)Cc1ccccc1	0
COc1cc2c(cc1O)[C@@H]1Cc3ccc(OC)c(O)c3CN1CC2	40[10 µg/mL]
COc1cccc(-n2c(SCC(=O)NC3CCCCC3)nc3n[nH]c(C)c3c2=N)c1	0
COc1ccc(CNC(=O)C2CCCN(S(=O)(=O)c3cnc[nH]3)C2)cc1 (configuration not stated)	0
NC(N)=N/N=C/c1c(Cl)cccc1Cl	0[10 µg/mL]
CCCc1nnc(NC(=O)CCC(=O)N2CCCCC2CC)s1 (configuration not stated)	80
CCOc1ccc(N(CC(=O)N2CCN(c3ccccc3)CC2)S(=O)(=O)c2c(C)noc2C)cc1	80
CCN(CC)CCNc1ccc(CO)c2sc3ccccc3c(=O)c12	40[10 µg/mL]
Cc1ccc(CC2C(=O)N(C)C(=O)N(C)C2=O)s1	40
CCC1(c2ccc(N)cc2)CCC(=O)NC1=O (configuration not stated)	40[10 µg/mL]
Cc1cc(C(C)(C)C)c(O)c(C)c1CC1=NCCN1	0[10 µg/mL]
Cc1ccc(S(=O)(=O)NCCc2ccccc2)cc1	0
O=C(O)COCc1nc2ccccc2[nH]1	40
CCCC(O)(CCN(C)C)c1ccc(OC)cc1 (configuration not stated)	0
COc1cccc2cc3c(=O)n(-c4ccccc4)nc-3oc12	0
COc1ccc(NS(=O)(=O)c2cc(C)ccc2C)cc1	0
Cn1cccc1Cc1nnc(SCC(=O)NCC2CCCO2)n1CCc1ccccc1 (configuration not stated)	0
CC(=O)/C(C[N+]1(C)CCCCC1)=N\O	40
COc1ccc2sc(C)nc2c1NC(C)=O	?
COc1ccc(N2CSC3=C(C#N)C(c4ccc(OC)c(OC)c4)CC(=O)N3C2)c(OC)c1 (configuration not stated)	40
CN(C(=O)C(Cl)Cl)c1ccc(OC(=O)c2ccco2)cc1	40[10 µg/mL]
O=[N+]([O-])c1cccc(-c2nnc3c4ccccc4c4ccccc4n23)c1	0
CCCc1nnc(NC(=O)CC(=O)OCC)s1	0
COC(=O)C(Cc1cnc(Cl)s1)(C(=O)OC)c1ccc(C(F)(F)F)cc1[N+](=O)[O-]	0
COc1cccc(-n2c(Cc3cc(=O)[nH]c(=O)[nH]3)nnc2SCC(=O)NC2CCCCC2)c1	0
O=C(CSc1nnc(-c2ccc(Br)o2)n1Cc1ccccc1)c1ccccc1F	0
O=C(Cn1c(=O)oc2cc(S(=O)(=O)N3CCCC3)ccc21)NCc1ccccn1	0
CCOc1ccc(C(CCc2ccccc2)NC(=O)c2ccccc2)cc1OCC (configuration not stated)	40
CCn1cc(S(=O)(=O)CC(=O)Nc2cc(C)on2)c2ccccc21	0
Cc1cc[n+](CCC(=O)O)c2ccccc12	40
COc1ccc(C(c2sc3nc(C)nn3c2O)N2CC(C)OC(C)C2)cc1OC (configuration not stated)	0

An excerpt; count on the stated rates, not on these rows.
